gsp ag: agonists of gsp mutant (McCune-Albright syndrome). gsp mutant cells, cAMP HTRF, 30 min; control for the full effect not named in the record. Potency, µM (top dose mostly 76.9 µM), without a hit: at the highest dose activation (cAMP increase), most hits filed as activators. hit rate 0.13% among 340,000. AID 624287; active = well fitted activation curve with a large enough effect; inconclusive = small, poorly fitted or top-dose-only effect, or another doubt; inactive = no such curve, though single readings can be large or run the other way; cell line not stated here;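 also: phosphodiesterase inhibitor Ro 20-1724 added with compounds to block cAMP breakdown; potency is read from the fitted curve at half-maximal effect; nearly all actives have a fitted effect of over 60% in size; about a fifth of the inactives were tested at one dose only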
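Cells stably selected in G418 were plated at 2000/well, grown 16-24 hr, then given compounds in DMSO with the PDE inhibitor […] (300 uM solution added) for 30 min at 37C; cAMP was read by HTRF.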
Menin MLL FP FL: inhibitors of human menin-MLL interaction, wild-type MLL peptide. Fluorescence polarization, fluorescein-MLL peptide displacement from menin. FP activity change, % at 61.4 µM. 290,000 tested, under 10 active; inconclusive = falling polarisation curve, or a change in total fluorescence; inactive = total fluorescence flat and polarisation flat or rising; no compound was filed as active; the % refers to the polarisation; negative = inhibition;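 also: % of control where 0% means no effect; inhibitors lower the polarisation; unlabelled MLL peptide was the positive control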
Sfp PPTase inh: Sfp phosphopantetheinyl transferase inhibition. Biochemical Sfp PPTase activity, qHTS. Potency, µM, without a hit: max response, negative = inhibition, most hits filed as inhibitors. hit rate 3.5% among 310,000. AID 1490; active = well fitted inhibition curve with a large enough effect; inconclusive = small, poorly fitted or top-dose-only effect, or another doubt; inactive = no such curve, though single readings can be large or run the other way;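 also: the enzyme is Sfp with the accession as filed and its product quenches rhodamine fluorescence; potency is read from the fitted curve at half-maximal effect; 0% = enzyme reaction without inhibitor and -100% = no enzyme wells; top concentration of the series not given in the record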
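Fluorescence-quenching assay with 15 nM Sfp, 5 uM rhodamine-CoA and 12.5 uM BHQ-2-labelled ybbR peptide in pH 7.6 Hepes/MgCl2 buffer. Enzyme was pre-incubated with compound for 15 min at room temperature. Rate was taken from the 30-min fluorescence change (525/598 nm).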
ClpP mod: qHTS Assay for Activators of ClpP. ATP-dependent Clp protease proteolytic subunit (Bacillus subtilis (strain 168)), P80244. purified B. subtilis ClpP, FRET peptide cleavage, 20 min. Potency, µM (top dose mostly 57.5 µM), inactives show at the highest dose activity change, negative = active. hit rate 1.9% among 340,000. AID 651965, 2013; active = well fitted falling curve with a large enough effect; inconclusive = small, poorly fitted or top-dose-only effect; inactive = no such curve, though single readings can be large or run the other way; also: potency is read from the fitted curve at half-maximal effect; the source files actives as falling curves though it sought activators and does not explain the sign; nearly all actives have a fitted effect of over 65% in size; many hits overshoot -100%
Target sequence (P80244 whole entry, looked up): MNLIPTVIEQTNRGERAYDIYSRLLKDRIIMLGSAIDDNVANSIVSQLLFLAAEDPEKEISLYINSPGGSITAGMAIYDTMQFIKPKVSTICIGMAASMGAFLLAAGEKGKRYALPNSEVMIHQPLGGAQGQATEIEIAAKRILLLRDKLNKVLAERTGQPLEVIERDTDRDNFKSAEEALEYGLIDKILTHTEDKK
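Buffer: 100 mM Tris/HCl pH8, 100 mM KCl, 0.05% low protease BSA, 2.5% glycerol, 0.01% Tween-20. ClpP 10 microg/mL final; 20 min RT; delta FRET normalized to ADEP and DMSO controls.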
gsp antag: antagonizes gsp, the McCune-Albright syndrome mutation; gsp-mutant cells, cAMP HTRF, 30 min; control for the full effect not named in the record; Potency, µM (doses to about 76.9 µM), inactives show top-dose activity change, negative = inhibition, most hits filed as inhibitors; hit rate 0.4% among 340,000; AID 624288; active = falling curve of any shape with a large fitted effect; inconclusive = falling curve, mostly with a smaller effect; inactive = flat or rising curve; cell line not stated here;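 also: intracellular cAMP measured with PDE inhibitor Ro 20-1724 present during compound exposure; potency is read from the fitted curve at half-maximal effect; % is scaled to controls: 0 for no effect and ±100 for the full control effect; nearly all actives have a fitted effect of over 65% in size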
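Cells, 2000/well, grown 16–24 h in DMEM 10% FBS with 0.5 mg/ml G418, then compounds plus […] (300 uM addition stock), 30 min at 37C. cAMP read by HTRF (cAMP-d2 and anti-cAMP antibody-K in lysis buffer) after 30 min RT.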
TRPV1 potentiator: human TRPV1 potentiation. Q8NER1. TRPV1-expressing cells, Fluo-8 calcium influx, capsaicin EC20 potentiation; host cell line not named in the record; control for the full effect not named in the record. potentiation, % at 8.33 µM. hit rate 0.02% among 320,000; active means potentiation above 80%; inconclusive means 30% to 80%; inactive means below 30%; also: 0% is about no effect
Target sequence (Q8NER1 whole entry, looked up): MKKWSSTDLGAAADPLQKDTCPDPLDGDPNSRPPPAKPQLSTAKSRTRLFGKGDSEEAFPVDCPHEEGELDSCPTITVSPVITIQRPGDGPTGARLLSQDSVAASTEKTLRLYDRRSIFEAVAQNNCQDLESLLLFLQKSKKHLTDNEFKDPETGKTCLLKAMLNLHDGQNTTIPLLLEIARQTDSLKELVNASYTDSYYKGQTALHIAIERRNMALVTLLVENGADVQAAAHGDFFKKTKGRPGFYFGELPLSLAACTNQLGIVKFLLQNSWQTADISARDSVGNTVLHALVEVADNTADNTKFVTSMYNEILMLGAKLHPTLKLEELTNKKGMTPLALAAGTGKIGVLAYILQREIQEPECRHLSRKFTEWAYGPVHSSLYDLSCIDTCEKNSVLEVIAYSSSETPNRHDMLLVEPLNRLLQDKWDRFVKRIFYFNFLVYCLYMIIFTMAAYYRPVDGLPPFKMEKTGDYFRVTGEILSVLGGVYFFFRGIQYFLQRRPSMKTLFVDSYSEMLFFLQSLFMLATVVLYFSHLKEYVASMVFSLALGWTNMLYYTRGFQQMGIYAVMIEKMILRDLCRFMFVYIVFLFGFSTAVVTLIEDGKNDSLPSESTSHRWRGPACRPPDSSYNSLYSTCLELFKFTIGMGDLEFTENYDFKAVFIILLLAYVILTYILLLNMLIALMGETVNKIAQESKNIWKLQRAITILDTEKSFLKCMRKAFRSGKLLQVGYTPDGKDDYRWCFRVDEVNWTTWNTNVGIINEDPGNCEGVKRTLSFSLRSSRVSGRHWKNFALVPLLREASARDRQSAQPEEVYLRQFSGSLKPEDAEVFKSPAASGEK
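Cells expressing TRPV1 were dye-loaded with Fluo-8 and read kinetically: 10 s baseline, 3 min after compound (agonist portion), then 2 min after EC20 capsaicin (allosteric enhancer portion). Calcium-bound dye fluorescence at 480/520 nm.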
TRPML1 inh: blocks the human TRPML1 channel; AID 624415; activity change, negative = inhibition, % (no concentration beside the values); TRPML1-inducible cells, Ca2+ dye fluorescence, FDSS; stronger effect = lower value; inhibition of EC80 agonist-evoked calcium signal; hit rate 0.02% among 390,000; Q9GZU1; in the data active means activity change below about -50%; inconclusive means about -30% to -50%; inactive means above about -30%;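 also: stimulus is agonist 54-4 at its EC80 concentration; % is scaled to controls: 0 for no effect and ±100 for the full control effect; compound concentration not given in the record; the text of the record puts the active cut at -80%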
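Calcium fluorescence in TRPML1-DL cells induced overnight with Tet: a 110 s read after compound pin addition, then a 110 s antagonist read after challenge with 54-4 at 4 uM final (EC80).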
* marks the source's active call; other numbers are inactive results; ? = inconclusive; / = not tested or not shown; & = joins results of further samples; [ ] = another dose, or the depositor's remark. Rows were taken by chance, and some 4.9% of all compounds hit somewhere here.

Below each SMILES – gsp ag | Menin MLL FP FL | Sfp PPTase inh | ClpP mod | gsp antag | TRPV1 potentiator | TRPML1 inh
COc1cc(OC)cc(OCC(O)Cn2ccnc2)c1 (stereo not given)
    -5% | -0.7 | 8% | -0.2% | 4% | 6 | -9
Cc1ccsc1C(=O)OCC(=O)N1CC(=O)Nc2ccccc21
    -22% | -1.1 | -6% | 0.9% | 4% | -18 | -10
CS(=O)c1ccccc1O (stereo not given)
    16% | 2.3 | 18% | -4.4% | 9% | 2 | -7
O=[N+]([O-])c1ccc(N=Nc2ccc(O)c3ccccc23)cc1
    16% | / | / | / | 25µM* | / | 0
O=C(CCC(=O)N(CC(=O)NC1CCCCC1)Cc1ccccc1)Nc1nccs1
    11%[15.4 µM] | / | 1% | / | 11% | 6 | -1
CCOC(=O)C(=CNc1nc2ccc(C(=O)OCC)cc2s1)C(=O)OCC
    -14% | 1.3 | 8% | -7.7% | 13% | -6 | 6
COc1cccc(OC)c1C(=O)OCC(=O)NCCNC(=O)COC(=O)c1c(OC)cccc1OC
    -18% | / | / | -15% | / | / | -5
Cc1ccsc1C(=O)NNC(=O)c1csc(N2CCOCC2)n1
    -4% | / | / | -6.6% | 4% | -1 | 2
Cc1cc(NC(=O)CCS(=O)(=O)c2nc(-c3ccccc3)cc(C(F)(F)F)n2)no1
    -25% | 3.2 | ? | -1.4% | 14% | -12 | 43
CS(=O)(=O)Nc1ccc(C(=O)CC(=O)Nc2ccc([N+](=O)[O-])cc2)cc1
    -25% | 2.0 | 10% | / | -2% | 0 | -20
COC(=O)/C(=N\OCc1ccc(C#N)cc1)c1c(C)nn(C)c1C
    1%[15.4 µM] | -10 | 3% | / | 2% | 9 | -12
Cc1ccc(C(=O)O)cc1NS(=O)(=O)c1ccc2ccccc2c1
    ? | -6.8 | 10% | -3.9% | 1% | 25 | /
Cc1csc(CNC(=O)C2CCC(=O)N(CCc3cccc(F)c3)C2)n1 (stereo not given)
    ? | / | 11% | 3.0% | 2% | 11 | -7
Cc1ccc(NC(=O)NNC(=O)c2ccc3c(c2)NC(=O)C(C)(C)O3)cc1
    8%[15.4 µM] | 3.6 | 11% | / | 6% | 1 | -5
CC1Cc2cc(S(=O)(=O)NCCC(=O)N(C)Cc3ccccc3)ccc2N1C(=O)C1CC1 (stereo not given)
    -53%[inhibitor] | 2.6 | 12% | 0.9% | -23% | -1 | 8
COc1ccc(C2C(C(=O)N3CCOCC3)c3ccccc3C(=O)N2c2ccc(OC)cc2)cc1 (stereo not given)
    -42% | 1.7 | 15% | -1.5% | 7% | 2 | -4
Nc1nc(SCC(=O)NCc2ccc(F)cc2)[nH]c(=O)c1NC(=O)c1ccc(Cl)cc1
    18% | 5.6 | -29% | 0.3% | 6% | 8 | -19
O=C(CN1C(=O)c2ccccc2S1(=O)=O)NC1CCCCCC1
    ? | 2.5 | 17% | 2.9% | 1% | 21 | 5
C[C@@H]1CN([C@@H](C)CO)S(=O)(=O)c2ccc(Br)cc2O[C@H]1CN(C)C(=O)C1CCCCC1
    -27% | / | / | -0.8% | / | / | -3
Cc1ccc(Nc2ccc(C(N)=O)cc2[N+](=O)[O-])cc1
    25% | 1.5 | 6% | 13µM* | 1% | -3 | 0
CCOc1ccccc1N1CCN(CC(=O)Nc2ncc(C)s2)CC1
    -4% | -1.0 | -7% | -0.4% | -8% | 1 | -12
COC(=O)c1ccc(NC(=O)CN(C)Cc2cccc(F)c2)cc1
    -19%[15.4 µM] | 7.2 | 5% | / | 10% | -13 | 22
CCN(CC(=O)NCC(=O)Nc1ccc(Br)cc1C)Cc1ccccc1
    -3%[15.4 µM] | / | / | / | -2% | -2 | 2
CCc1cccc(OCCn2ccnc2)c1
    6%[15.4 µM] | 13 | -5% | -2.7% | -3% | 4 | 5
O=C(Nc1ccc(N2CCOCC2)cc1)c1ccc2nc(-c3ccco3)c(-c3ccco3)nc2c1
    -16% | -0.6 | -8% | 0.9% | 9% | -4 | -9
CCSc1nc(N2CCOCC2)c2ccccc2n1
    -17% | 5.2 | 6% | -3.4% | -17% | 21 | 18
CCc1ccc(C2C3=C(CCCC3=O)OC3=C2C(=O)CCC3)cc1
    ? | 4.2 | 3% | -2.4% | 10% | -2 | -9
CCOC(=O)C1CCCN(Cc2nc(N)nc(Nc3ccc(C)cc3)n2)C1 (stereo not given)
    0% | 11 | 3% | -0.2% | 20% | 12 | 0
COc1ccc2c(c1)c1nnc(SCC(=O)N3C(C)CCCC3C)nc1n2C (stereo not given)
    13% | -0.7 | 13% | -0.2% | 9% | 7 | -6
O=C(Cn1c(=O)oc2cccnc21)Nc1ccc(C(F)(F)F)cc1
    -5%[15.4 µM] | -3.3 | 13% | / | 0% | -2 | 4

Molecules from the list above that contain an aryl thioether with sulfur outside any ring, in the order listed:
Below each SMILES – gsp ag | Menin MLL FP FL | Sfp PPTase inh | ClpP mod | gsp antag | TRPV1 potentiator | TRPML1 inh
Nc1nc(SCC(=O)NCc2ccc(F)cc2)[nH]c(=O)c1NC(=O)c1ccc(Cl)cc1
    18% | 5.6 | -29% | 0.3% | 6% | 8 | -19
CCSc1nc(N2CCOCC2)c2ccccc2n1
    -17% | 5.2 | 6% | -3.4% | -17% | 21 | 18
COc1ccc2c(c1)c1nnc(SCC(=O)N3C(C)CCCC3C)nc1n2C (stereo not given)
    13% | -0.7 | 13% | -0.2% | 9% | 7 | -6

The list goes on:
Below each SMILES – gsp ag | Menin MLL FP FL | Sfp PPTase inh | ClpP mod | gsp antag | TRPV1 potentiator | TRPML1 inh
CCOc1ccc(OC(=O)c2cccnc2)cc1
    -3% | 5.7 | 8% | 0.5% | 12% | 0 | -15
Cc1c(OC(C)C(=O)NCc2cccnc2)ccc2c3c(c(=O)oc12)CCCC3 (stereo not given)
    12% | / | 17% | 3.7% | ? | -7 | -1
CSc1nsc(SCC(=O)NCc2ccccc2)n1
    2%[15.4 µM] | -0.2 | 16% | -2.3% | 9% | 1 | 29
COC(=O)c1sc(-c2ccccc2)cc1NC(C)=O
    22%[15.4 µM] | 2.9 | 6% | -1.8% | -7% | 0 | 8
Cc1ccc(NC(=O)CCn2c(=O)c3cccn3c3ccccc32)cc1C
    0% | / | 11% | -4.9%&-9.8% | ? | 16 | -10&3
COc1ccc(NC(=O)CSc2nnc3n2CCCCC3)cc1OC
    -174%[inhibitor] | / | / | -2.6% | / | / | -5
O=C(c1ccccc1)N1CCC(=O)N(C(CO)Cc2ccccc2)CC1 (stereo not given)
    -1% | / | / | 0.4% | 10% | / | -8
c1ccc(Nc2cccc(Nc3ccccc3)c2)cc1
    4% | 2.1 | 13% | -16% | 11% | 14 | 15
CC(=O)NC(CC(=O)NCC(=O)Nc1ccc(F)c(F)c1)c1ccccc1 (stereo not given)
    30% | 4.3 | 11% | / | 6% | 21 | 0
C=CCn1cccc(C(=O)Nc2cc(OC)ccc2OC)c1=O
    5%[15.4 µM] | 1.3 | -27% | / | -9% | 22 | -3
COc1cccc(C2CC(c3ccc(F)cc3)Nc3nc(N)nn32)c1 (stereo not given)
    -61%[inhibitor] | 5.5 | 3% | -5.5% | 3% | 23 | -16
Cc1ccc(-n2c(Cc3cccn3C)nnc2SCC(=O)NCc2ccc3c(c2)OCO3)cc1
    ? | -0.3 | 1% | 2.4% | -13% | 1 | -6
COC(=O)C1=C[C@@H](C(=O)OC)C2C3=C(C(=O)[C@@]2(C)NC(=O)c2ccccc2)[C@H](C)n2c(=O)n(C)c(=O)n2[C@@H]3C1 (stereo not given in full)
    / | 0.2 | 22% | / | / | / | 2
Cc1ccc(C(=O)C2=C(O)C(=O)N(c3ncccn3)C2c2ccc(Br)cc2)o1 (stereo not given)
    29%[15.4 µM] | ? | -3% | / | 7% | 3 | 0
COC(=O)[C@@]12CCCCN1[C@H](c1ccc(-c3ccc(Cl)c(Cl)c3)c(OC)c1)[C@H]1C(=O)N(C)C(=O)[C@H]12
    / | / | / | 1.4% | 3% | / | 0
COc1ccccc1N1CCN(S(=O)(=O)CCNC(=O)c2ccc(OC(C)C)cc2)CC1
    -23% | -1.8 | 4% | -0.1% | -12% | 10 | -9
COc1ccc(NS(=O)(=O)c2ccc(Oc3cccc(C(=O)O)c3)cc2)cc1
    14%[15.4 µM] | -1.5 | 22% | / | 0% | 17 | -5
CC(=O)Oc1ccc2occ(-c3ccccc3)c2c1
    1% | 4.6 | 3% | -7.0% | -9% | 2 | -10
CC1=NN(C)C(=O)C1Cc1c(F)cccc1Cl (stereo not given)
    21%[15.4 µM] | / | / | / | -3% | / | 12
Cc1cccc([N+](=O)[O-])c1NC(=O)CSc1nnc2ccccn12
    25% | / | / | -0.3% | 4% | 1 | 7
C/C(N)=C(/C#N)C(=O)CSc1nnc(SCc2ccc(Cl)cc2)s1
    2%&-18% | 8.1 | 16% | 1.6% | ? | 6 | 50&-5
CN(C)S(=O)(=O)c1cccc(NC(=S)NCc2ccc3c(c2)OCO3)c1
    -5% | 1.0 | -4% | -1.4% | -5% | 1 | -18
COC(=O)C(CCSC)NC(=O)CNC(=O)C1CCCCC1 (stereo not given)
    -30%[inhibitor] | 2.2 | 3% | -0.4% | -14% | 13 | 17
Cc1cccc(NC(=O)c2ccc([N+](=O)[O-])cc2Cl)n1
    -11% | 2.3 | 1% | 1.0% | 10% | -8 | 4
COCCCN1C(=O)c2ccc(C(=O)OCC(=O)NCCc3ccccc3)cc2C1=O
    12%[15.4 µM] | -0.3 | 7% | / | -11% | 0 | -12
COc1ccc(-c2csc(Nc3ccc(C)cn3)n2)cc1OC
    -2% | 2.3 | ? | -3.4% | ? | -1 | /
